Screens as filed in PubChem.
CBX7 AlphaScr = CBX7 inhibition, primary AlphaScreen | AlphaScreen His6-CBX7 / biotin-H3K27me3 peptide binding; active compounds read low | normalised signal (fraction of DMSO) (concentration not given with the values) | 66,000 tested, 1.1% active | AID 1224903; in the data active = normalised signal below about 0.5;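 note: 100 nL library stock added to about 20 µL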
Target sequence (O95931 whole entry, looked up): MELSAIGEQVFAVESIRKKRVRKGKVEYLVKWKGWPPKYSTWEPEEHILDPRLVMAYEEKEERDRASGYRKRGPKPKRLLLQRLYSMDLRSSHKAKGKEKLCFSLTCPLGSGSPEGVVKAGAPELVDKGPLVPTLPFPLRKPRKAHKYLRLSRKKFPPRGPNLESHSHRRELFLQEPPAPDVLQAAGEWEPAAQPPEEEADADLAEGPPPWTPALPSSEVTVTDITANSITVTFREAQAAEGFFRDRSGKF
CBX7 AlphaScr z-score = second read-out of CBX7 AlphaScr, no call of its own (marks repeat the call); z-score; measured here: z-score of CBX7 signal; some inactives read as strong as hits; reference of the scale not given here;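 same signal on another scale; lower means less binding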
Numbers without * were called inactive. Some of the compounds tested (hit frequency here may not be typical).

mol,CBX7 AlphaScr,CBX7 AlphaScr z-score
Cc1ccc(-c2ccc(=O)n(CC(=O)NCCCN3CCCCC3C)n2)cc1 (stereo not drawn),1,0.17
COc1ccc(-c2nc3ccccc3n2Cc2cccc(C)c2)cc1OC,1.1,2.2
CCOc1cc2c(cc1OCC)C(c1ccccc1O)NCC2 (stereo not drawn),1.1,1.8
Cc1cc(N2CCOCC2)nc2ccc(NC(=O)CCC(=O)NC(C)C)cc12,1.1,0.068
Cc1ccc2cc(CCN3C(=O)c4ccccc4C3=O)c(=O)[nH]c2c1,1.1,2.5
O=C1CC(c2ccccc2Cl)Cc2nc(NCc3ccccc3)ncc21 (stereo not drawn),1.3,2.9
C=CCn1c(SCc2cc(F)ccc2F)nc2cc(C(=O)N3CCC(C(N)=O)CC3)ccc2c1=O,1,0.21
O=C(NCCCN1CCN(c2ccc(F)cc2)CC1)Nc1ccc(Cl)cc1,1.5,3.7
COc1ccc(-c2nc(C(=O)NC(C)CCc3ccccc3)c(C)o2)cc1OC (stereo not drawn),0.96,-0.69
O=C1CSc2ccc(C(=O)NCc3ccccc3Cl)cc2N1,1.1,0.6
O=C(CCNS(=O)(=O)c1ccc2c(c1)CCC(=O)N2)NCCCc1ccccc1,1,0.92
CCOc1ccccc1NC(=O)CN(C)S(=O)(=O)c1cccc2cccnc12,0.98,-0.4
Cn1c(C(=O)N2CCCC(C(=O)NCc3ccccn3)C2)cc2sccc21 (stereo not drawn),0.91,-2.6
CCOCCCNC(=O)C1CCN(Cc2nc(-c3ccc(OC)c(OC)c3)oc2C)CC1,1,0.65
Cc1ccc2c(c1)N(CCC(=O)NCc1ccccc1)C(=O)C(C)O2 (stereo not drawn),0.86,-1.9
CCn1cc(C(=O)Nc2ccc(F)c(Cl)c2)c2cc(OC)c(OC)cc2c1=O,1.1,3.3
CC(=O)N1CCc2cc(S(=O)(=O)N3CC(C)CC(C)C3)ccc21 (stereo not drawn),1,0.27
O=C(Nc1ccccc1C(=O)N1CCOCC1)c1cccs1,0.94,-0.62
O=C(CC1Oc2ccccc2NC1=O)NCc1ccccc1 (stereo not drawn),1.1,1.8
COc1cc2c(=O)c(S(=O)(=O)c3ccccc3)cn(Cc3ccccc3)c2cc1OC,0.94,-1.2
FC(F)(F)c1cccc(N2CCN(c3ncnc4scc(-c5ccc(Cl)cc5)c34)CC2)c1,1.2,0.46
COc1ccc(CCN2C(=O)Cn3cccc3C2C(=O)NC2CCC(C)CC2)c(OC)c1 (stereo not drawn),1,0.47
Cc1cc(=O)n2nc(N3CCC(C(=O)Nc4ccc(Br)cc4F)CC3)sc2n1,0.99,-0.63
Cc1oc(-c2cccc(Cl)c2)nc1CN1CCC(C(=O)NCC2CCCO2)CC1 (stereo not drawn),0.99,-0.16
Cc1ccc(S(=O)(=O)c2nc(-c3cccs3)oc2SCC(C)C)cc1,0.99,-0.024
Cc1ccc(NC(=O)c2oc3ccc(S(=O)(=O)N(C)C4CCCCC4)cc3c2C)cc1Cl,1.1,2.2
COc1cccc(-c2ncnn2-c2ccc(Cl)c(C)c2)c1OC,1.3,5.4
Cc1ccccc1OCCCC(=O)Nc1nc(-c2ccccc2)cs1,1,0.41
COc1cc(OC)cc(-c2nnc(NC(=O)c3ccc(S(=O)(=O)N4CC(C)OC(C)C4)cc3)o2)c1 (stereo not drawn),0.91,-2.1
O=c1c2ccccc2c2ccccc2c(=O)n1-c1cccc(-c2nc3ccccc3o2)c1,0.97,-0.87
C=CCn1c(SCCC#N)nnc1-c1cccnc1,0.98,-0.59
CCSc1nnc(-c2c[nH]c3ccccc23)n1C,1.1,0.67
CCCCN(CC)CCNC(=O)c1cc(Nc2ccc(OC)cc2OC)nc2ccccc12,0.66,-5.2
CCOc1ccc(C(=O)Nc2c3c(nn2-c2cccc(C)c2C)CSC3)cc1,1,0.12
CCOc1ccc(OCC)c(NS(=O)(=O)c2ccc3c(c2)CCN3C(=O)CC)c1,1.1,1.4
COc1ccc(CC(=O)Nc2c3c(nn2-c2cccc(Cl)c2)CS(=O)(=O)C3)cc1OC,1.1,0.53
CCc1nc(Nc2nc3ccccc3s2)nc2c1CCCC2,0.95,-0.66
CCOc1ccc(CCNC(=O)C2CCN(C(=O)N(C)C)CC2)cc1OCC,1.1,1.2
Fc1ccccc1-c1nc(N2CCC3(CC2)OCCO3)c2ccccc2n1,0.89,-0.68
COc1ccc(-c2noc(N(C)CC(=O)Nc3ccc(OC)c(OC)c3)n2)cc1,1,0.48

15 neighbouring compounds from above, quoted:
mol,CBX7 AlphaScr,CBX7 AlphaScr z-score
Cc1cc(=O)n2nc(N3CCC(C(=O)Nc4ccc(Br)cc4F)CC3)sc2n1,0.99,-0.63
Cc1oc(-c2cccc(Cl)c2)nc1CN1CCC(C(=O)NCC2CCCO2)CC1 (stereo not drawn),0.99,-0.16
Cc1ccc(S(=O)(=O)c2nc(-c3cccs3)oc2SCC(C)C)cc1,0.99,-0.024
Cc1ccc(NC(=O)c2oc3ccc(S(=O)(=O)N(C)C4CCCCC4)cc3c2C)cc1Cl,1.1,2.2
COc1cccc(-c2ncnn2-c2ccc(Cl)c(C)c2)c1OC,1.3,5.4
Cc1ccccc1OCCCC(=O)Nc1nc(-c2ccccc2)cs1,1,0.41
COc1cc(OC)cc(-c2nnc(NC(=O)c3ccc(S(=O)(=O)N4CC(C)OC(C)C4)cc3)o2)c1 (stereo not drawn),0.91,-2.1
O=c1c2ccccc2c2ccccc2c(=O)n1-c1cccc(-c2nc3ccccc3o2)c1,0.97,-0.87
C=CCn1c(SCCC#N)nnc1-c1cccnc1,0.98,-0.59
CCSc1nnc(-c2c[nH]c3ccccc23)n1C,1.1,0.67
CCCCN(CC)CCNC(=O)c1cc(Nc2ccc(OC)cc2OC)nc2ccccc12,0.66,-5.2
CCOc1ccc(C(=O)Nc2c3c(nn2-c2cccc(C)c2C)CSC3)cc1,1,0.12
CCOc1ccc(OCC)c(NS(=O)(=O)c2ccc3c(c2)CCN3C(=O)CC)c1,1.1,1.4
COc1ccc(CC(=O)Nc2c3c(nn2-c2cccc(Cl)c2)CS(=O)(=O)C3)cc1OC,1.1,0.53
CCc1nc(Nc2nc3ccccc3s2)nc2c1CCCC2,0.95,-0.66

(list continues)
The line under a structure holds: CBX7 AlphaScr, CBX7 AlphaScr z-score
Cc1cc(=O)n2c(-c3ccccc3)n[nH]c2n1
    1.3, 2.2
Cc1ccc2c(c1)N(CCC(=O)NCCN1CCCCCC1)C(=O)CO2
    1.1, 2.1
O=C(Nc1ccc2oc(-c3ccccc3)nc2c1)c1cccc(F)c1
    0.94, -0.7
CC1CCC(NC(=O)C2c3cccn3CC(=O)N2c2cccc(C#N)c2)CC1 (stereo not drawn)
    0.95, -1.2
CCN(CC)CCCNC(=O)c1ccc2c(c1)NC(=O)C1CCCN21 (stereo not drawn)
    1.1, 0.6
Cc1nc2c(C(=O)N3CCOCC3)c[nH]n2c(=O)c1Cc1ccc(Cl)cc1
    1.1, 0.92
COc1ccc(-c2cc3nc(C)c(CCC(=O)Nc4ccc(OC)c(OC)c4)c(C)n3n2)c(OC)c1
    0.89, -1.5
Cc1nn(CCCC(=O)NC2CCC(C)CC2)c2ccc(F)cc12 (stereo not drawn)
    1.1, 3.2
Cc1sc2ncn(CC(=O)NC(C)C)c(=O)c2c1S(=O)(=O)N1CC(C)CC(C)C1 (stereo not drawn)
    1, 0.17
O=C(NCc1ccc2c(c1)OCO2)C1CC(=O)N(C2CCCCCC2)C1 (stereo not drawn)
    0.99, -0.4
O=C(c1cnn(-c2ccccc2)c1-n1cccc1)N1CCCC(C(=O)N2CCc3ccccc3C2)C1 (stereo not drawn)
    1.1, 0.48
CC1CC(C)CN(C(=O)CSc2nnc(-c3ccc(F)cc3)o2)C1 (stereo not drawn)
    1.2, 2.9
Cc1ccc(NC(=O)c2cnc3ccccc3n2)cc1
    1, 0.36
CCCCN(CCCC)S(=O)(=O)c1ccc(C(=O)Nc2nc(-c3ccncc3)cs2)cc1
    1, 0.29
COc1ccc(CCCc2nnc(SCC(=O)Nc3ccc(Cl)cc3)o2)cc1
    1, 0.26
O=C(O)c1cc(-c2ccco2)nc2cc(O)ccc12
    1.1, 1.2
Cc1ccc(NC(=O)[C@H](CSCc2ccccc2)N2Cc3ccccc3C2=O)c(C)c1
    0.96, -1.1
CCCCCCCc1ccc(-c2ccc(OC)cc2)nc1
    1.7, 1.1
COc1ccc(-c2cc(C(=O)Nc3cc(S(N)(=O)=O)ccc3C)c3ccccc3n2)cc1OC
    1.1, 1.9
COc1ccc(N2CCN(C(=O)Cc3c(C(=O)O)n(C)c4ccccc34)CC2)cc1
    1.1, 0.7
O=C(CSc1nnc(C2COc3ccccc3O2)o1)N1CCCCC1 (stereo not drawn)
    0.96, -0.73
COc1ccc(-n2nnc3c(=O)n(CC(=O)N4CCCCCC4)cnc32)cc1
    0.97, -0.57
CC12C(=O)N(c3ccc(Cl)c(Cl)c3)C(=O)C1C1C=CC2C1 (stereo not drawn)
    1, 0.013
CCCOc1ccc(N2C(=O)CC(N3CCC(C(N)=O)CC3)C2=O)cc1 (stereo not drawn)
    0.9, -1.6
CCc1ccc(NC(=O)CCNC(=O)Cn2ccc3ccccc3c2=O)cc1
    1, 1
CCOC(=O)c1oc2ccccc2c1NC(=O)COC
    1.1, 2.1
Cc1nc(N2CCCC2)c(C#N)c2c1COC(C)(C)C2
    1.1, 2
Cc1ccc(-c2nnc(SCC(=O)N3CCCc4ccccc43)o2)cc1C
    1.2, 2
CC1CCCCC1NC(=O)c1ccc2c(c1)NC(=O)C1CCCN21 (stereo not drawn)
    0.94, -0.26
Cc1ccc(CCNC(=O)C2CCC(=O)N2CCc2ccccc2)cc1 (stereo not drawn)
    1.1, 1.1
CCCN1C(=O)c2ccccc2NC1c1cc(OC)c(OC)c(OC)c1 (stereo not drawn)
    1, 0.79
Cc1sc2ncnc(Nc3ccc(F)c(Cl)c3)c2c1S(=O)(=O)N1CCC(C)CC1
    0.85, -1.9
COc1ccccc1CC(Cc1nc2ccccc2[nH]1)c1nc2ccccc2[nH]1 (stereo not drawn)
    1, 0.45
Cc1c(C)n(CC(O)CN2CCCCCC2)c2ccccc12 (stereo not drawn)
    1, 0.057
O=C(Nc1sc2c(c1C(=O)O)CCCC2)c1cccc(Cl)c1
    1, 1.5
COc1cc(NC(=O)CCc2nc(-c3cccs3)no2)cc(OC)c1OC
    1, 1.1
COc1ccc(Nc2ncc(C(=O)O)c3ccccc23)cc1
    1.1, 0.21
CCOC(=O)N1CCc2c(sc(NCc3ccccc3OCC)c2C(=O)Nc2cc(OC)ccc2OC)C1
    0.74, -13
Cc1ccc(NC(=O)Cn2c(SCc3ccc(F)cc3)nc3ccncc32)cc1C
    0.98, -0.76
O=C(CCn1c(=O)[nH]c2ccccc2c1=O)NCc1ccc2c(c1)OCO2
    1.2, 0.64
O=C(NCCc1ccc(Cl)cc1)C1CCN(S(=O)(=O)c2cccc3cccnc23)CC1
    0.98, -0.26
CCOc1ccc(NC(=O)CC2C(=O)N(c3ccc(OC)cc3)C(=O)N2CCc2cccs2)cc1 (stereo not drawn)
    1, 1.4
CC(=O)NCCCc1nc2ccccc2n1Cc1ccccc1F
    0.97, -1.6
COc1ccccc1OCc1nc(C#N)c(NCc2ccc(C)cc2)o1
    0.69, -3.9
Fc1ccccc1N1CCN(CCCNc2nc3ccccc3c3nc(-c4ccccc4)nn23)CC1
    1.1, 2.3
Cc1ccc(-n2cc(-c3ccc4c(c3)OCO4)nc2SCC(=O)Nc2ccc(Cl)cc2)cc1
    0.94, -2.9
Cc1cccc(NC(=O)c2ccc(CNc3c(N4CCC(C)CC4)c(=O)c3=O)cc2)n1
    1, 0.36
COc1ccccc1CNC(=O)CSCc1cnn(-c2ccccc2)c1-n1cccc1
    0.99, -0.45
COc1ccccc1CNC(=O)c1cnc2scc(C)n2c1=O
    0.86, -1.7
O=C(CCS(=O)(=O)c1nc(-c2ccc3c(c2)OCO3)cc(C(F)(F)F)n1)Nc1ccc(F)cc1F
    1.1, 0.87
Cc1ccccc1Cc1c(C)nc2c(C#N)c(C)nn2c1C
    1, 0.24
O=C1CSc2ccc(C(=O)N3CCN(c4cccc(C(F)(F)F)c4)CC3)cc2N1
    0.91, -0.98
Cc1ccc(Nc2c(-c3ccc(N4CCOCC4)cc3)nc3cnccn23)cc1
    1.3, 2.5
Cc1nc2cc(-c3cccc(F)c3)nn2c(C)c1CCC(=O)NC(C)c1ccccc1 (stereo not drawn)
    1, 0.38
COc1cccc(CNC(=O)c2cc3sc(Cl)cc3n2C)c1
    1, 0.55
CCc1nc(SCC(=O)Nc2nnc(CC(C)C)s2)n[nH]1
    1.1, 1.8
COc1ccc(NC(=O)c2c(NCc3cccs3)sc3c2CCCC3)cc1
    0.53, -6.6
COc1ccc(Cc2nnc(SCC(=O)Nc3nc(-c4ccccc4)cs3)o2)cc1
    0.91, -1
O=C(Cn1ccc2ccccc2c1=O)NCC(=O)Nc1ccc(F)cc1F
    1, 0.12
COCCCNC(=O)C1CCCN(c2nc3ccccc3[nH]2)C1 (stereo not drawn)
    1, 0.29

(further entries)
The line under a structure holds: CBX7 AlphaScr, CBX7 AlphaScr z-score
O=C(Cn1nc(-c2ccccc2)c2ccccc2c1=O)N1CCCCC1
    1, 0.21
CCCN(CCC)CCCNC(=O)C1CCCN(Cc2nc(-c3ccc(Cl)cc3)oc2C)C1 (stereo not drawn)
    1, 0.31
CC1=C(C(=O)Nc2cccc(C)n2)C(c2cccc(Cl)c2)C2=C(CC(C)(C)CC2=O)N1 (stereo not drawn)
    1.1, 0.64
O=C(CCc1nc(-c2cccs2)no1)NCCN1CCN(c2ccccc2F)CC1
    1, 1.6
Cc1cc(C)c2nc(C)cc(Nc3cccc(C)c3C)c2c1
    0.95, -0.39
COCCCNC(=O)CSCc1nc(-c2ccccc2Cl)oc1C
    1, 0.78
CCOC(=O)c1c(C)n(-c2ccc(OCC)cc2)c2ccc(OC)cc12
    1.1, 1.7
